Menin-MLL FL inh: inhibitors of human menin-MLL interaction, wild-type MLL peptide | Fluorescence polarization, fluorescein-MLL peptide displacement from menin | FP activity change, % at 61.4 µM | 290,000 tested, under 10 active | AID 1766; inconclusive = falling polarisation curve, or a change in total fluorescence; inactive = total fluorescence flat and polarisation flat or rising; no compound was filed as active; the % refers to the polarisation; negative = inhibition;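 note: % of control where 0% means no effect; inhibitors lower the polarisation; unlabelled MLL peptide was the positive control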
TRPV1 potentiator: enhances activation of the human vanilloid receptor TRPV1; potentiation, % at 8.33 µM; 0.02% of 320,000 active; TRPV1-expressing cells, Fluo-8 calcium influx, capsaicin EC20 potentiation; host cell line not named in the record; control for the full effect not named in the record; Q8NER1; AID 540277; active means potentiation above 80%; inconclusive means 30% to 80%; inactive means below 30%; note: 0% is about no effect
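TRPV1-expressing cells were cultured overnight at 35.5C and loaded with Fluo-8 calcium dye for 40 to 90 min at room temperature. After a 10 s baseline, compound was added and calcium influx was read kinetically for 3 min (ex 480/em 520 nm).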
TRPML1 ag: agonists of human TRPML1 channel | AID 624414 | TRPML1-expressing cells, Ca2+ dye fluorescence, FDSS; host cell line not named in the record; reference of the full effect not given here | 0.12% of 410,000 active | activation, % (no concentration beside the values); in the data active = activation above about 50%; inconclusive = about 30% to 50%; inactive = below about 30%; note: 0% is about no effect; the text of the record puts the active cut at 80%
Target sequence (Q9GZU1 whole entry, looked up): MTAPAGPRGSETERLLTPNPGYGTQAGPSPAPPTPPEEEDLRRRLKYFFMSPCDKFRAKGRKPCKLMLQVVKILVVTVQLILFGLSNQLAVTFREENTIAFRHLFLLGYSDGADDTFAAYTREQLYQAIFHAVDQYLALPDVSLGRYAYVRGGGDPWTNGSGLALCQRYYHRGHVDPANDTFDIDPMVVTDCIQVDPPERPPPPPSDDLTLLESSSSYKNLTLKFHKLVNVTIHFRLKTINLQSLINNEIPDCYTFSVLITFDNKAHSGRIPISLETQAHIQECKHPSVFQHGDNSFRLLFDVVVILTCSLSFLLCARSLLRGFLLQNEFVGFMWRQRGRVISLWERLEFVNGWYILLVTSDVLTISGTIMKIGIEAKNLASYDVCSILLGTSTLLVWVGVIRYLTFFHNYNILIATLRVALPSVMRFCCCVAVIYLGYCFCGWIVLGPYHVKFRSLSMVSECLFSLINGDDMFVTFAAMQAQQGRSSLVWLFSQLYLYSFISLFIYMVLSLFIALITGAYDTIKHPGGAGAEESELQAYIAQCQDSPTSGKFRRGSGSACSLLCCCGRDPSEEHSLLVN
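Agonist activity was taken from a 110 s kinetic Ca2+ dye read on the FDSS after pinning compounds onto TRPML1-DL cells. The cells were seeded at 1,500/well with Tet inducer, incubated about 16 h, then dye-loaded at room temperature.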
Sfp inh: Sfp phosphopantetheinyl transferase inhibition; Q9F4F7; Biochemical Sfp PPTase activity, qHTS; Potency, µM, for inactives: max response, negative = inhibition, usual class: inhibitors; 3.5% of 310,000 active; active = well fitted inhibition curve with a large enough effect; inconclusive = small, poorly fitted or top-dose-only effect, or another doubt; inactive = no such curve, though single readings can be large or run the other way;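 note: the enzyme is Sfp with the accession as filed and its product quenches rhodamine fluorescence; potency is the fitted concentration of half-maximal effect; 0% = enzyme reaction without inhibitor and -100% = no enzyme wells; top concentration of the series not given in the record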
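Compounds were incubated with enzyme (final 15 nM) for 15 min at room temperature before substrate addition started the reaction. Fluorescence at 525 nm excitation, 598 nm emission was recorded immediately and after 30 minutes.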
PINK1 modulator: PINK1 expression modulation; PINK1 immunofluorescence, high-content cytometry, 24 h; Potency, µM (series often up to 76.6 µM), for the others: at the top dose activation (PINK1 increase), actives largely listed as activators; 0.2% of 410,000 active; AID 624263; active = well fitted activation curve with a large enough effect; inconclusive = small, poorly fitted or top-dose-only effect; inactive = flat fitted curve, though single readings scatter; cell line not stated here;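 note: potency is the fitted concentration of half-maximal effect; % of control where 0% means no effect; nearly all actives have a fitted effect of over 65% in size; a mitochondrial uncoupler was the plate control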
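PINK1 protein, normally rapidly degraded, was detected by immunofluorescence after 24 hour compound treatment of a stable cell line. Titration data (5 concentrations) came from laser-scanning cytometry, with CCCP-treated wells as controls.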
TRPML1 blocker: human mucolipin-1 channel inhibition; Q9GZU1; TRPML1-inducible cells, Ca2+ dye fluorescence, FDSS; stronger effect = lower value; inhibition of EC80 agonist-evoked calcium signal; activity change, negative = inhibition, % (test concentration not listed); 0.02% of 390,000 active; AID 624415; in the data active means activity change below about -50%; inconclusive means about -30% to -50%; inactive means above about -30%;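 note: stimulus is agonist 54-4 at its EC80 concentration; % is set by controls: 0 for no effect and ±100 for the full control effect; compound concentration not given in the record; the text of the record puts the active cut at -80%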
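Calcium fluorescence in TRPML1-DL cells induced overnight with Tet: a 110 s read after compound pin addition, then a 110 s antagonist read after challenge with 54-4 at 4 uM final (EC80).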
ClpP mod: qHTS Assay for Activators of ClpP; ATP-dependent Clp protease proteolytic subunit (Bacillus subtilis (strain 168)), P80244; purified B. subtilis ClpP, FRET peptide cleavage, 20 min; Potency, µM (titrated, usually from 57.5 µM), without a hit: at the highest dose activity change, negative = active; 1.9% of 340,000 active; AID 651965, 2013; active = well fitted falling curve with a large enough effect; inconclusive = small, poorly fitted or top-dose-only effect; inactive = no such curve, though single readings can be large or run the other way; note: potency is the fitted concentration of half-maximal effect; the source files actives as falling curves though it sought activators and does not explain the sign; nearly all actives have a fitted effect of over 65% in size; many hits overshoot -100%
Target sequence (P80244 whole entry, looked up): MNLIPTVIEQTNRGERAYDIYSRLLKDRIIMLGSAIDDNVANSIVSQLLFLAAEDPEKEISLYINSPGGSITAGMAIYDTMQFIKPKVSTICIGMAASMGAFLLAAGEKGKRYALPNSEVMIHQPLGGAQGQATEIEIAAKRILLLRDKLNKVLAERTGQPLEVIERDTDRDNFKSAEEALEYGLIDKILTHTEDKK
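ClpP 10 microg/mL final, pH 8 Tris/KCl buffer with BSA, glycerol, Tween-20; compound pinned in; FRET-FV substrate; RT 20 min; Ex320/Em430; ΔFRET vs ADEP 5.8 microM, DMSO, no enzyme.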
* marks the source's active call; other numbers are inactive results; ? = inconclusive; nt = no result given; & = joins results of further samples; [ ] = dose if it differs, or a comment.

SMILES | Menin-MLL FL inh | TRPV1 potentiator | TRPML1 ag | Sfp inh | PINK1 modulator | TRPML1 blocker | ClpP mod
CCOc1ccc2c(c1)C(c1cccs1)=NNC(c1cccnc1)=N2 | 6.9 | -5.5 | -0.2 | 2.8% | 2.2% | 5.9 | nt
C(=N\NC1=NCCN1)/c1ccncc1 | -0.6 | 10.4 | -0.9 | -3.1% | 0.5% | -0.5 | 0.7%
CCCC(=O)Nc1ccccc1-c1nnn(CC(=O)Nc2ccc(OC)cc2)n1 | -1.8 | 1.6 | -0.3 | 1.9% | 2.4% | -20.0 | 10.2%
CCCC(=O)N1CCN(c2ccc(NC(=O)C(C)(C)C)cc2Cl)CC1 | -3.7 | -2.7 | 0.0 | 21.2% | 0.3% | 1.5 | -1.7%
Cc1c(C(=O)O)c(-c2ccccc2)nn1-c1ccccc1 | -1.1 | -12.8 | -0.8 | 9.9% | 2.8% | 17.3 | 15.8µM*
COc1cc(CN2CCCC(CO)(Cc3cccc(Cl)c3)C2)cc(OC)c1O (stereo not given) | 1.9 | 19.4 | 0.8 | 21.3% | 0.8% | -6.9 | -0.5%
O=C(OCC(=O)N1CCc2ccccc21)c1ccccc1F | 1.6 | 0.0 | 0.7 | 7.6% | 0.8% | 2.8 | nt
COc1cc(/C=C2/SC(=S)N(c3c(C)n(C)n(-c4ccccc4)c3=O)C2=O)ccc1O | ? | 4.3 | 7.9 | -13.4% | 4.1% | 4.2 | nt
O=C(CNC(=O)c1[nH]cnc1C(=O)N[C@@H](Cc1ccccc1)C(=O)OCc1ccccc1)OCc1ccccc1 | -3.1 | -20.4 | 0.9 | 22.3% | 2.3% | 6.2 | -2.9%
O=C(Nc1c[nH]c2c(Cl)cccc2c1=O)N1CCN(c2ccccn2)CC1 | -0.1 | 12.2 | 0.1 | 7.9% | 1.3% | -4.9 | -9.0%
CCOc1ccc(CCNC(=O)c2nn(-c3ccc(OC)c(Cl)c3)c(=O)c3c2c2ccccc2n3C)cc1OCC | nt | nt | -0.2 | nt | -2.1% | -2.0 | ?
O=C(N/N=C\c1ccc([N+](=O)[O-])s1)C1COc2ccccc2O1 (stereo not given) | -3.3 | 8.1 | -0.4 | -6.7% | 2.5% | 1.9 | 2.5%
CN1CCN(C(=O)c2cc3nc(-c4ccc(Cl)cc4)cc(C(F)(F)F)n3n2)CC1 | 1.0 | 0.6 | 1.6 | 3.0% | ? | 12.4 | -15.8%
O=[N+]([O-])c1cnc(Nc2ccccc2)nc1Nc1ccccc1 | -6.1 | -2.0 | 1.4 | 11.1% | 0.1% | 21.8 | nt
CC(C)CN1CC[C@@]2(CCCN(C(=O)c3cccc(F)c3)C2)C1 | 1.2 | nt | nt | -11.1% | 1.4% | nt | nt
CC1CCN(C(=O)c2ccc(S(=O)(=O)Cc3cccc(F)c3)c([N+](=O)[O-])c2)CC1 | 0.3 | 15.5 | 0.5 | -2.2% | -1.5% | -12.6 | ?
CCN(CC)C(=O)[C@H]1CC(CC(=O)NCc2ccc(OC)c(OC)c2)C(=O)N2CCc3c([nH]c4ccccc34)[C@]12C (stereo not given in full) | nt | nt | 0.2 | nt | 0.4% | -7.1 | -0.8%
COc1cccc(NC(=O)CSc2nncn2N)c1 | 1.1 | -2.7 | 0.1 | -1.1% | 0.5% | -8.4 | -1.4%
CC(NC(=O)c1ccc(S(=O)(=O)N(C)C)cc1)c1ccc(-n2ccnc2)cc1 (stereo not given) | 1.7 | -4.2 | 0.6 | 19.7% | 3.2% | -2.8 | nt
CCCCCc1c(-c2ccc(OC)c(OC)c2)ncn1CCc1ccccc1OC | nt | nt | -0.4 | nt | ? | nt | -22.3%
COc1ccc([N+](=O)[O-])cc1NC(=O)CCN1CCN(c2ccccc2OC)CC1 | 1.8 | 4.0 | -0.5 | 7.0% | 12.0% | 6.9 | 0.7%
CC1(C(=O)NCc2ccc(F)cc2)Oc2ccccc2NC1=O (stereo not given) | 5.2 | -8.3 | 2.3 | -13.5% | 0.6% | 8.6 | nt
Cc1ccc(-n2ncc3c2CC(C)(C)CC3NC(=O)Cc2c(C)noc2C)cc1 (stereo not given) | nt | -6.5 | 0.2 | 6.5% | 4.2% | -20.6 | 0.9%
Cc1cc(NC(=O)CSc2nnc(-c3ccncc3)n2N)ccc1Br | -3.7 | 4.0 | 0.4 | -27.2% | -0.8% | 15.5 | -2.6%
Cn1cc(C=O)c(-c2ccc3c(c2)OCCCO3)n1 | 0.1 | 2.7 | 1.0 | 12.8% | -1.5% | -22.5 | nt
CC(C)OC(=O)CC1C(=O)NCCN1C(=S)NC(=O)c1ccccc1Cl (stereo not given) | 1.3 | 8.5 | -0.1 | -11.5% | -1.2% | 0.0 | nt
O=C(Nc1ccc(N2CCN(C(=O)c3ccc(Cl)cc3)CC2)cc1)c1ccc(Br)o1 | -1.3 | -7.4 | 1.7 | 2.1% | -0.3% | -2.0 | -1.5%
CCn1c(SC)nnc1-c1nn(-c2ccccc2)ccc1=O | 0.3 | 0.6 | 1.1 | 6.2% | -1.3% | 15.6 | nt
Cc1cc(NC(=O)CSc2nnc(Cc3ccccc3)n2C)no1 | -1.3 | 3.0 | -0.6 | 25.3% | 3.6% | -6.1 | -0.2%
COc1cc(NC(=S)NCCCN2CCOCC2)c(OC)cc1NC(=O)c1ccco1 | -1.5 | 16.7 | -0.3 | 7.5% | 0.3% | -21.8 | nt
O=C(NC(NC(=S)Nc1cccc(C(=O)O)c1)C(Cl)(Cl)Cl)OCc1ccccc1 (stereo not given) | 7.8 | -1.5 | 0.7 | 6.4% | -1.9% | -8.6 | -1.7%
CCc1ccc(C(=O)NNC(=O)c2cccc(S(=O)(=O)N3CCN(C)CC3)c2)cc1 | nt | 2.0 | -0.1 | nt | 0.3% | 14.8 | -2.0%
O=C(NCCOc1ccccc1F)C1CC(=O)N(c2ccc3c(c2)OCCO3)C1 (stereo not given) | nt | -3.1 | -0.3 | nt | -0.5% | 15.6 | 2.1%
CCn1c2c(c(=O)n3ncc(C(=O)Nc4ccc(C(=O)OC)cc4)c13)CN(Cc1ccc(OC)cc1)CC2 | nt | nt | 2.0 | nt | 0.2% | -17.5 | ?
N=c1c[n+](N2CCOCC2)[n-]o1 | 2.1&-2.1 | 21.2 | 1.0 | -10.9% | 0.5% | 28.8 | -0.4%
CC(C)Oc1ccc(/C=C(\NC(=O)/C=C/c2ccco2)C(=O)NCCc2nc3ccccc3[nH]2)cc1 | 15.1 | -4.2 | -0.3 | ? | 1.6% | 4.1 | 1.4%
CCc1ccc2occ(CC(=O)Nc3c(C(=O)c4ccc(C)cc4)oc4ccccc34)c2c1 | nt | nt | 0.6 | nt | 0.6% | -20.2 | ?
CCOc1ccc(-n2c(=O)c3c4c(sc3n(CC(=O)NC(C)CC)c2=O)CCCC4)cc1 (stereo not given) | nt | nt | 1.6 | nt | 2.2% | -2.0 | -0.9%
O=C(COC(=O)c1ccco1)Nc1ccc2c(c1)OCCO2 | ? | -8.1 | 0.5 | 13.0% | 3.8% | 0.0 | 0.8%
Cc1c(C(=O)N(Cc2ccc(N(C)C)cc2)CC2CCCO2)oc2ccc(Cl)cc12 (stereo not given) | nt | nt | -0.3 | nt | 0.8% | 31.1 | 0.7%
Cc1cc2nc3c(=O)n(Cc4ccccc4)c(=O)[nH]c3nc2cc1N | ? | -5.1 | 94.8* | 20µM* | ? | -16.4 | nt
CC(C)Oc1ccc(CNC(=O)c2ccc3c(c2)nc2n3CCCCC2)cc1 | nt | nt | -0.2 | nt | -0.5% | -0.6 | -1.6%
Cn1c(CNC(=O)c2ccc(Cl)cc2)nnc1SCC(=O)N1CCOCC1 | nt | 1.9 | 0.2 | 10.2% | 2.2% | 39.6 | -2.8%
CCc1nn(-c2ccccc2)c2c1-c1cc(OC)c(OC)cc1C1(N2)C(=O)Nc2ccccc21 (stereo not given) | 4.3 | 4.3 | -1.0 | -16.5% | 0.3% | 22.2 | -2.7%
CCOC(=O)C(NS(=O)(=O)c1ccc(C)cc1)(C(F)(F)F)P(=O)(OCC(C)C)OCC(C)C (stereo not given) | 9.3 | -37.3 | 6.1 | -2.3% | 8.3% | -19.6 | 0.4%
COC(=O)c1ccc(/C=N\NC(=O)c2ccc(C)cc2Cl)cc1 | 3.3 | nt | 1.6 | -3.1% | nt | 14.7 | -17.2%
COc1ccc(CCNC(=O)c2cc(=O)[nH]c3ccccc23)cc1 | 6.2 | 23.5 | 0.3 | 10.2% | 1.9% | 28.1 | nt
CCCCCC(=O)Nc1cccc(C2=NOC3(C2)C[C@H](C(N)=O)N(C(=O)CCCCC)C3)c1 (stereo not given in full) | 5.0 | ? | -1.0 | 2.2% | -1.3% | 12.5 | -3.1%
COc1ccc(N2C(=O)C3CCCN3C2c2cccc(C)c2)cc1 (stereo not given) | -3.0 | 12.4 | 1.3 | 22.5% | -1.9% | 20.3 | 2.0%
COc1ccccc1C1C(C#N)=C(N)N(c2cccnc2)C2=C1C(=O)CC(C)(C)C2 (stereo not given) | -1.0 | -6.0 | -0.5 | 13.3% | 6.0% | 16.7 | 2.3%
O=C(NCCN1CCOCC1)Nc1ccc(F)cc1 | -5.5 | -11.8 | -0.4 | 24.2% | 1.4% | -2.3 | -0.9%
CCOCCCNS(=O)(=O)c1cc(Br)cc2c1N(C(=O)C1CC1)CC2 | -1.0 | 3.2 | 0.0 | 17.9% | -0.1% | -4.7 | 0.5%
COc1ccc(C2c3ccc(O)cc3Oc3ncn4nc(-c5ccco5)nc4c32)cc1OC (stereo not given) | 10.8 | -19.1 | 3.1 | -6.1% | 9.4% | 23.6 | nt
COc1cc2c(=O)[nH]c3cc([N+](=O)[O-])ccc3c2cc1[N+](=O)[O-] | nt | nt | -0.1 | nt | -0.6% | -2.0 | 1.1%
COc1ccc(CCNC(=O)COc2ccc(S(=O)(=O)NC3CCCCC3)cc2Cl)cc1OC | 3.3 | 1.0 | 2.3 | 4.6% | 4.0% | -2.7 | -3.1%
CC(C)CC1C(=O)N(Cc2cn(CC3CCCCC3)nn2)CCS(=O)(=O)N1Cc1ccc(-c2ccncc2)cc1 (stereo not given) | nt | nt | -0.6 | nt | 4.7% | -0.5 | -0.2%
O=C(Cn1nc(Br)nc1Br)c1ccccc1 | -1.9 | 15.5 | -1.5 | 14.5% | -0.3% | 5.4 | -2.4%
COc1ccc(-c2ccc(Nc3ccc(S(=O)(=O)N4CCCC4)cc3)nn2)cc1OC | 3.1 | 5.8 | 3.3 | 7.0% | 14.7%[38.3 µM] | 26.6 | -7.0%
